TSHR ag: agonists of human thyroid stimulating hormone receptor. HEK293-CNG-TSHR cells (CNG channel as cAMP sensor), membrane potential dye, cAMP. P16473. Potency, µM (titrated, usually from 57.1 µM), inactives show top-dose activation, hits mostly activators. 0.48% of 73,000 active; active = well fitted activation curve of enough size with the parental cells flat; inconclusive = any curve in the parental cells; inactive = parental cells flat and receptor cells flat or falling; also: potency is read from the fitted curve at half-maximal effect; % of control where 0% means no effect; weak receptor curves with flat parental cells got no call and are not listed
Target sequence (P16473 whole entry, looked up): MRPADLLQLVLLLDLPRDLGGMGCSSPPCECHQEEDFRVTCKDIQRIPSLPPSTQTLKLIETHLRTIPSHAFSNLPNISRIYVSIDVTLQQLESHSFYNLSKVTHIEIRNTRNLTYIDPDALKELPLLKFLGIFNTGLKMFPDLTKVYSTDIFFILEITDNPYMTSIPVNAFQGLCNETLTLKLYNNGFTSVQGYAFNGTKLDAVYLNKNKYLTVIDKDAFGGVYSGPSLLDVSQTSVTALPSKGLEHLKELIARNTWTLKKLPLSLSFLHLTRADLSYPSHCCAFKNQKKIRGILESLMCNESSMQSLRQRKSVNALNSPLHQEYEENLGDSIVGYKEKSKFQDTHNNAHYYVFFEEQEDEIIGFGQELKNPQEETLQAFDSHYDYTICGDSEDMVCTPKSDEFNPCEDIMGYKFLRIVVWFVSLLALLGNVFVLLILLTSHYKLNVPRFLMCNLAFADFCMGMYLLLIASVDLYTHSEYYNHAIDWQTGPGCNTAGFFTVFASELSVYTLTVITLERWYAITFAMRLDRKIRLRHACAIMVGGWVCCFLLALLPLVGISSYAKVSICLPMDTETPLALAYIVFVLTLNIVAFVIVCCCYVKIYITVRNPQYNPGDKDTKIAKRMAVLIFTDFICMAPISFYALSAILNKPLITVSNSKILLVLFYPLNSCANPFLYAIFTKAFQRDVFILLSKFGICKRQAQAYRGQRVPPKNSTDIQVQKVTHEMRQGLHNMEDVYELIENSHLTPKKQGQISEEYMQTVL
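cAMP rise detected as CNG-channel membrane depolarization by fluorescent dye (emission 590 nm), 30 min after compound, following 60 min dye loading containing 100 uM RO 20-1724 at room temperature. Cells: TSHR/CNG HEK 293, with parental CNG HEK 293 as control.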
A488 fluor: compound autofluorescence in A488 spectral region; compound autofluorescence, A488 spectral region, dye equivalency; stronger effect = higher value; max dye equivalency, M; 0.1% of 59,000 active; AID 591; active = above 10 nM dye equivalent; inconclusive = 1 to 10 nM; inactive = 1 nM or less; about half of its hits are not listed in these tables;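 also: highest value over a series up to 38 µM; compound alone in buffer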
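Read-out: relative fluorescence at 480/540 nm, expressed as Alexa 488 dye-equivalent concentration from a six-point A488 standard included per plate. Conditions: 100 mM Tris, pH 8.0; 15 min incubation, room temperature.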
AID923: qHTS Assay for Allosteric/Competitive Inhibitors of Caspase-1: Spectroscopic Profiling in AFC Spectral Region | 1.1% of 75,000 active | compound fluorescence, AFC spectral region (405/520 nm); almost no hit is shown here | Potency, µM (highest dose often 57.5 µM), without a hit: at the highest dose fluorescence increase, hits mostly activators; active = well fitted activation curve with a large enough effect; inconclusive = small, poorly fitted or top-dose-only effect;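 also: potency is read from the fitted curve at half-maximal effect; 0% is about no effect; scaled to a free AFC standard on each plate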
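Compound autofluorescence profiled at 405 nm ex/520 nm em during kinetic caspase 1 run (50 nM enzyme, 5 uM Ac-WEHD-AFC, HEPES pH 7.5, 10 mM DTT). Titration up to 57 uM; baseline from regression intercept, normalized to AFC standard curve.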
A647 autofl: compound fluoresces in the A647 spectral region; max dye-equivalent concentration, M; Compound fluorescence, A647 channel (570/671 nm), Tris buffer; 59,000 tested, under 10 active; active means above 1 µM dye equivalent; inconclusive means 0.1 to 1 µM; inactive means 0.1 µM or less;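 also: values scaled relative to a standard on each plate; highest value over a series up to 38 µM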
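Compound fluorescence was measured in 100 mM Tris buffer, pH 8.0, after 15 min at room temperature, using 570 nm excitation and 671 nm emission filters. Signal was normalized to a per-plate Alexa 647 standard curve and expressed as dye-equivalent concentration at each compound concentration.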
Resorufin fluor: resorufin region autofluorescence; Compound fluorescence, resorufin region 547/598 nm, buffer; stronger effect = higher value; max dye-equivalent concentration, M; 0.04% of 59,000 active; AID 588; active = above 10 nM dye equivalent; inconclusive = 1 to 10 nM; inactive = 1 nM or less; a few of its hits are not listed in these tables; also: highest value over a series up to 38 µM
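Read-out: intrinsic compound fluorescence at ex 547/em 598 nm after 15 min at RT in pH 8.0 Tris (100 mM). Values expressed as resorufin-equivalent concentration from per-plate standard series.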
An asterisk follows results filed as active; i = inactive; ? = inconclusive; / = not tested or not shown; [ ] = another dose, or the depositor's remark. A portion of the library; the hit share may differ from the screen's.

no. | smiles | TSHR ag | A488 fluor | AID923 | A647 autofl | Resorufin fluor
1 | Cc1cccc(OCCC(=O)OCC(=O)N2CCc3ccccc32)c1 | 29.4% | i | 1.2% | 1e-09 | i
2 | O=C(Nc1ccc2c(c1)nc1n2CCCCC1)c1cc(S(=O)(=O)N2CCOCC2)ccc1Cl | 17.0% | i | -1.3% | 1e-09 | i
3 | CC1=C(C(=O)OCc2ccc3c(c2)OCO3)C(c2ccc(Cl)cc2)NC(=O)N1 (centres undefined) | 31.6µM* | / | -4.6% | / | /
4 | CC1(C(=O)NC2CCCC2)CCC(=O)N1Cc1ccc2c(c1)OCO2 (centres undefined) | 3.8% | i | -2.2% | 1.2e-09 | i
5 | O=C(Cn1c(=O)oc2ccccc21)N1CCN(c2ccc(N3CCOCC3)nn2)CC1 | 0.3% | / | 16.5% | / | /
6 | c1ccc(CNc2ncnc3c2cnn3-c2ccccc2)cc1 | ? | i | -0.9% | 7.9e-09 | i
7 | C=C(C)COc1ccc2c(C)c(C)c(=O)oc2c1OCC(=C)C | ? | i | -1.0% | 1e-09 | i
8 | Nc1nc(CSc2nc3ccccc3s2)nc(N2CCCCC2)n1 | ? | i | -2.7% | 3.4e-09 | i
9 | O=C(NC1c2ccccc2-c2ccccc21)N1CCCCC1 | ? | / | -0.7% | / | /
10 | COc1ccc(-c2cc3nc(C4CCN(C(=O)OC(C)(C)C)CC4)c(C(=O)O)cn3n2)cc1 | / | i | 5.7% | 1e-09 | i
11 | CC(C)c1ccc2c(c1)C(=O)NC(C)(C)C2 | 12.4% | / | 0.2% | / | /
12 | CCCS(=O)(=O)N1CCC(C(=O)NCCCOC(C)C)CC1 | 1.3% | i | -0.4% | 2.68e-08 | i
13 | O=c1c2ccccc2nc(-c2ccco2)n1CCCn1ccnc1 | / | i | -1.8% | 1.51e-08 | i
14 | CC(Nc1nc(N2CCCC2)nc2ccccc12)c1ccccc1 (centres undefined) | -22.3% | i | 0.7% | 2.8e-09 | i
15 | C=CCn1c(O)c(C(CC)=Nc2ccccc2NC(=O)CC)c(=O)[nH]c1=O | 3.7% | i | 4.5% | 4.9e-09 | i
16 | COC(=O)c1ccc(N(CC(=O)NC2CCCC2)C(=O)CNC(=O)c2ccco2)cc1 | 2.9% | i | 0.1% | 2.43e-08 | i
17 | N=c1c2c(n(Cc3ccc(Cl)cc3)c3c1CCC3)CCC2 | 18.3% | i | -0.7% | 6.1e-09 | i
18 | COc1ccc(-c2cc3nc(C)cc(C)n3n2)c(OC)c1 | / | i | 0.8% | 1.8e-09 | i
19 | O=C(CCn1c(=O)oc2ccccc21)Nc1ccon1 | -3.7% | i | 9.9% | 1.01e-08 | i
20 | CCc1nc(NCCCN2CCOCC2)c2oc3ccccc3c2n1 | 13.1% | i | 0.0% | 9.3e-09 | i
21 | CC12CN(Cc3ccccc3)CC(C)(CN(Cc3ccccc3)C1)C2=NO | ? | / | 0.0% | / | /
22 | O=C1Oc2ccccc2C(=O)/C1=C\N1C(=O)N/C(=C\c2ccccc2O)C1=O | 5.0%[11.4 µM] | i | -1.2%[11.5 µM] | 1e-09 | i
23 | CCOC(=O)N1CCC(Nc2c(Nc3cccc(CC)c3)c(=O)c2=O)CC1 | 6.1%[11.4 µM] | i | 0.0% | 4.9e-09 | i
24 | CCCC[C@@H]1C[C@H]1C(NC(=O)Cc1ccccc1)c1ccc(Cl)cc1 (some centres undefined) | ? | / | -0.7% | / | /
25 | CCn1c(C2CC(=O)N(c3ccc(C)c(C)c3)C2)nc2ccccc21 (centres undefined) | 13.4% | / | 1.9% | / | /
26 | Cc1cc(C)cc(NC(=O)CN(C)S(=O)(=O)c2cccc3nsnc23)c1 | 0.4% | i | -1.2% | 1e-09 | i
27 | CCOC(=O)c1cnc2ccc(C(=O)OC)cc2c1NCCN1CCOCC1 | ? | / | -0.6% | / | /
28 | O=C(c1cnn2ccccc12)N(Cc1ccco1)C1CCCC1 | 9.0% | / | 1.2% | / | /
29 | O=C(CSc1nnc(-c2ccccc2)n1C1CCCCC1)N1CCCC1 | 2.1% | i | 0.7% | 1e-09 | i
30 | O=C(Nc1cccc(F)c1)N1CCCC2(CCN(C(=O)c3cc(C(F)(F)F)cc(C(F)(F)F)c3)CC2)C1 | 26.1% | i | 3.2% | 1e-09 | i
31 | O=C(O)c1ccc(-n2nnnc2Oc2ccccc2C(=O)N2CCOCC2)cc1 | -0.4% | i | 0.8% | 7e-09 | i
32 | CC(c1ccco1)N(C(=O)c1cccs1)c1ccccn1 (centres undefined) | 3.5% | i | 0.8% | 1e-09 | i
33 | O=C(CCN1CCN(c2ccccc2F)CC1)Nc1ccccc1F | 17.7% | i | 0.6% | 4.74e-08 | i
34 | COCCOC(=O)/C=C1/NC(=O)CS1 | 5.5% | i | -1.5% | 1.1e-09 | i
35 | Cc1ccc(CSCCNS(C)(=O)=O)cc1 | 6.1% | / | 0.5% | / | /
36 | CCCOc1ccccc1C1NC(=O)NC(C)=C1C(=O)OCCOCC (centres undefined) | 3.4% | i | -0.7% | 1.8e-09 | i
37 | Cc1cccc(-c2nnc(SCc3nc4ccccc4[nH]3)n2Cc2ccco2)c1 | ? | i | 3.2% | 2.24e-08 | i
38 | C/C(=N\O)c1ccccc1C(=O)O | 6.5% | i | -0.3% | 4.11e-08 | i
39 | Cc1ccc(OCc2ccoc2C(=O)O)cc1C | 15.0% | i | -0.9% | 3.2e-08 | i
40 | N#Cc1c(NC(=O)CSc2n[nH]c(Cc3ccccc3)n2)oc(-c2ccccc2)c1-c1ccccc1 | 28.0% | i | 0.9% | 3.1e-09 | i

Molecules from the list above with fluorine, in the order listed:
no. | smiles | TSHR ag | A488 fluor | AID923 | A647 autofl | Resorufin fluor
30 | O=C(Nc1cccc(F)c1)N1CCCC2(CCN(C(=O)c3cc(C(F)(F)F)cc(C(F)(F)F)c3)CC2)C1 | 26.1% | i | 3.2% | 1e-09 | i
33 | O=C(CCN1CCN(c2ccccc2F)CC1)Nc1ccccc1F | 17.7% | i | 0.6% | 4.74e-08 | i

Next section.
no. | smiles | TSHR ag | A488 fluor | AID923 | A647 autofl | Resorufin fluor
41 | COc1ccc(OC)c(-n2nnnc2SCC(=O)NCCc2ccccc2)c1 | 7.4% | i | -1.0% | 1e-09 | i
42 | Cc1cc(C)n(CC(=O)N2c3ccccc3Sc3ccccc32)n1 | / | i | / | 2.75e-08 | i
43 | OCCSCc1cc(Cl)cc(Cl)c1O | 13.0%[11.4 µM] | i | 1.0%[11.5 µM] | 1e-09 | i
44 | COc1ccccc1CN1CCCC2(CCN(C(=O)c3cc(C(F)(F)F)cc(C(F)(F)F)c3)CC2)C1 | / | i | 0.3% | 1.37e-08 | i
45 | O=C(Nc1ccccc1N1CCCCC1)c1ccccc1F | ? | i | -3.0% | 2.12e-08 | i
46 | CCOc1ccc(S(=O)(=O)N2CCN(C(=O)c3cccn3C)CC2)cc1 | 7.2% | i | -0.7% | 2.39e-08 | i
47 | O=C(Nc1ccccc1Cl)c1cc(S(=O)(=O)N2CCCC(C(=O)O)C2)ccc1F (centres undefined) | / | i | 7.8% | 1e-09 | i
48 | Cc1cc(C)c2nc3s/c(=C/c4ccc5c(c4)n(C)c(=O)n5C)c(=O)n3c2c1 | 3.0% | i | 2.5% | 5.4e-09 | i
49 | O=C1OC(N2CCN(C(=O)C3CCCO3)CC2)c2ccccc21 (centres undefined) | -3.6% | i | -1.6% | 1e-09 | i
50 | CCCCc1n[nH]c2c1C(=O)CC(C)(C)C2 | 0.7% | i | -0.1% | 4.05e-08 | i
51 | c1ccc(Nc2ncnc3ccc(-c4ccc5c(c4)OCO5)cc23)cc1 | ? | i | 2.5% | 2.18e-08 | i
52 | CC(=O)c1cc2c(cc1NC(=O)c1cc3nc(C(C)C)cc(C(F)(F)F)n3n1)OCO2 | 0.9% | i | 2.5% | 1.7e-09 | i
53 | C[C@@H](N1CCOCC1)[C@@](O)(c1ccccc1)c1ccccn1 | 1.6%[11.4 µM] | i | 6.9%[11.5 µM] | 1e-09 | i
54 | O=S(=O)(c1ccccc1)N1CCC[C@@]2(CCN(c3ccccc3)C2)C1 | ? | i | 2.8% | 1e-09 | i
55 | COCCN(C(=O)Cc1cccs1)c1nnc(-c2cccnc2)s1 | 3.1% | i | -0.1% | 5.47e-08 | i
56 | COCCOc1nc2c(c(=O)n(C)c(=O)n2C)n1CCc1ccccc1 | ? | i | -2.1% | 1e-09 | i
57 | CN(C)CCNC(=O)c1c(O)c2c([nH]c1=O)CCCC2 | -0.1% | i | 3.1% | 3.2e-09 | i
58 | Cc1ccc(NC(=O)CN2CC(C)SC2=NC2CCCCC2)cc1 (centres undefined) | -6.5% | i | -1.5% | 9.2e-09 | i
59 | O=C(NCC1COc2ccccc2O1)c1c[nH]c2ccc(S(=O)(=O)N3CCOCC3)cc2c1=O (centres undefined) | -13.4% | i | 0.3% | 1.1e-09 | i
60 | COc1ccc2c(c1)CCC(C)N2S(=O)(=O)c1ccc(C2CNC(=O)C2)cc1 (centres undefined) | 5.0% | i | -0.2% | 1e-09 | i
61 | OCCNc1nc(Nc2ccccc2)nc(Nc2ccccc2)n1 | -19.1%[11.4 µM] | / | 0.8% | / | /
62 | O=c1cc(-c2ccccc2O)oc2c1ccc1ccccc12 | ? | i | -1.0% | 2e-09 | i
63 | CCCn1nc(-c2nnc(-c3ccc(C)c(C)c3)o2)c2ccccc2c1=O | 12.6% | i | -0.9% | 1e-09 | i
64 | CN(C)C(=O)N1CCN(C(=O)c2ccccc2Sc2ccccc2C#N)CC1 | 2.5% | i | -1.6% | 4.35e-08 | i
65 | O=c1/c(=C/c2ccc(CNS(=O)(=O)c3ccccc3)o2)sc2n1CCN=2 | -5.3% | i | 3.6% | 4.1e-09 | i
66 | COC(=O)CCCCC(=O)C1C(=O)CC(C)(C)C(C(=O)OC)C1=O (centres undefined) | -5.8% | / | -0.6% | / | /
67 | CCOC(=O)Cn1c2ccc(OC)cc2c2nc3ccccc3nc21 | 27.0% | i | -0.5% | 2.01e-08 | i
68 | COc1cc2cc(C(c3nnnn3Cc3ccc(F)cc3)N3CCCCCC3)c(=O)[nH]c2cc1OC (centres undefined) | ? | i | 9.6% | 2.7e-09 | i
69 | COc1ccccc1-c1cc(C(=O)Nc2cccnc2)no1 | 1.5%[11.4 µM] | i | 0.9% | 1e-09 | i
70 | CCCC(=N)C1=C(O)CC(CC(C)SCC)CC1=O (centres undefined) | 1.7% | / | 0.3% | / | /
71 | COC(=O)c1cnn2c(C)c(Cc3cccc(F)c3)c(C)nc12 | 13.9% | / | -1.8% | / | /
72 | COC(=O)c1ccc(C(NC(=O)OCc2ccccc2)/C(C)=C/[C@@H](C)C(=O)NCc2cc(C)on2)cc1 (some centres undefined) | ? | / | -0.6% | / | /
73 | Cc1c(Cl)cccc1NC(=O)CC1SCCNC1=O (centres undefined) | -4.4% | i | -0.2% | 3.1e-08 | i
74 | Cc1ccc(NC(=O)N2CCCC2C(=O)NCCc2ccccc2)cc1 (centres undefined) | 2.4% | i | -0.9% | 4.2e-09 | i
75 | CCCCOc1ccc(C(=O)Nc2ccc(N3CCN(C(=O)C(C)C)CC3)cc2)cc1 | 8.9% | i | -1.0% | 1e-09 | i
76 | CCCOC(=O)c1c(-c2ccccc2)nc(CC)c(C(=O)SCC)c1CCC | ? | i | -3.3% | 1e-09 | i
77 | CCOC(=O)c1cc2c(=O)n3cccc(C)c3nc2n(CCc2ccccc2)c1=N | / | i | / | 1.15e-08 | i
78 | COC(=O)CCCCCC(CCC(=O)OC)NC(C)=O (centres undefined) | -1.9% | / | 0.5% | / | /
79 | Cc1cccc(OCC(=O)N2CCC(c3ccccc3)C2)c1 (centres undefined) | 23.3% | / | -1.3% | / | /
80 | CC(=O)NCCn1c(SCC(=O)NCC2CCCO2)nc2ccccc2c1=O (centres undefined) | 7.3% | i | -0.1% | 7.3e-09 | i
